# Compound activity: PubChem BioAssay, National Center for Advancing Translational Sciences (NCATS)
# VDR inhibitor: blocks the human vitamin D receptor; P11473; VDR-SRC2-3 peptide fluorescence polarization, 2 h; Potency, µM, without a hit: max response, negative = inhibition, most hits filed as inhibitors; actives 0.93% (n = 400,000); AID 504847; active = well fitted inhibition curve with a large enough effect; inconclusive = small, poorly fitted or top-dose-only effect, or another doubt; inactive = no such curve, though single readings can be large or run the other way; also: series mostly up to about 120 µM
# Target sequence (P11473 whole entry, looked up): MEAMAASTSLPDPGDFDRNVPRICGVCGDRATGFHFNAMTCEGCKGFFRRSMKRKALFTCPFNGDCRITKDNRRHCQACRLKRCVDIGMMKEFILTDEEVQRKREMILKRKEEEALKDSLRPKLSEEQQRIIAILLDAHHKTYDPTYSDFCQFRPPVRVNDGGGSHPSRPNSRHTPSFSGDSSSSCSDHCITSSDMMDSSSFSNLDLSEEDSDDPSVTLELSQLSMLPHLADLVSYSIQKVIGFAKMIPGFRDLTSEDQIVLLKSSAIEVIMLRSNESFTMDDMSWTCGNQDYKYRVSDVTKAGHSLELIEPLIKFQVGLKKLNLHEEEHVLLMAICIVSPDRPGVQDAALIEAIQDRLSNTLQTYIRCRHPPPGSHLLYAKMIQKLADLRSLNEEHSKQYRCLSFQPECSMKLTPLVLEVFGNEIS
#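 Two reagent solutions held at 4 deg C in the dark were dispensed, compounds pinned at 23 nl, and the mixture incubated 2 h at room temperature. Read-out: fluorescence polarization of VDR–SRC2-3 peptide binding.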
# Active calls of the source: *; ? = inconclusive; & = joins results of further samples. % is scaled to controls: 0 for no effect and ±100 for the full control effect; potency is read from the fitted curve at half-maximal effect.
SMILES,VDR inhibitor
[N-]=[N+]=NC[C@H](c1ccccc1)N1CCN(Cc2ccccc2)CCC1=O,6%
CCC(C)(NC=O)C(=O)Nc1c(C)cccc1C (stereo unspecified),8%
C=CCc1cccc2cc(C(=O)NC3=C(C#N)CCC3)c(=O)oc12,17%
Cc1cccc(NS(=O)(=O)c2cccc(C(=O)NCC(C)(C)N3CCOCC3)c2)c1,-5%
CCOc1ccc(CCNC(=O)c2[nH]c3cc(OC)ccc3c2Sc2ccccc2)cc1OCC,-2%
O=c1c2ccccc2c(C=NCCCN2CCOCC2)c(O)n1Cc1ccccc1,5%
CCCC1=Nc2cc(C(=O)NCc3ccccc3)ccc2Sc2ccccc21,9%
Cc1ccc(C2C(C#N)C(C#N)N3CCCN23)cc1 (stereo unspecified),-11%
O=C(CCN1C(=O)C2CCCCC2C1=O)Nc1ccc(F)c(F)c1F (stereo unspecified),0%
CSCc1ccc(C(=O)OCc2nc3ccccc3s2)o1,-11%
N#C/C(=C\c1cccc(OC(=O)c2cccs2)c1)C(N)=O,?
CCCCNC(=O)c1cccnc1SCC(=O)Nc1ccccc1OC,-4%
CC(C)C(=O)OCc1cc(=O)n2nc(C3CCCCC3)sc2n1,7%
COc1ccc(C)cc1NC(=O)Nc1ccc(Br)cn1,-5%
Cc1ccc(S(=O)(=O)c2ccc(Oc3ccccc3)cc2)cc1,-5%
Fc1ccccc1-c1csc(-c2cccnc2)n1,26%
CCC(C)(C)C1CCC2(CC1)NC(=O)N(CC(=O)NCCCc1ccccc1)C2=O (stereo unspecified),-2%
O=C(CN1CC[n+]2c(-c3cccs3)csc21)c1ccc(-c2ccccc2)cc1,?
O=C(N=Nc1c(O)[nH]c2ccccc12)c1cc(-c2ccc(F)cc2)n[nH]1,0%
CCCCn1c(N)c(N(CCC(C)C)C(=O)c2ccc(C)o2)c(=O)[nH]c1=O,-3%
CC(C)c1csc(CN2CCC(N3CCC(C(=O)N4CCOCC4)CC3)CC2)n1,-7%
COc1ccc(CN(C(=O)Cn2nnc3ccccc32)C(C(=O)NC(C)(C)C)c2ccco2)cc1 (stereo unspecified),14%
O=C(CCN=C1NS(=O)(=O)c2ccccc21)Nc1ccc(F)cc1Cl,?
CCn1c(CNC(=O)c2ccco2)nnc1SCC(=O)c1ccc(OC)cc1,5%
O=S(=O)(c1cccs1)N1CN(C2CCCCC2)c2nc3ccccc3nc21,8%
CCCCCCCCCCCCCCC(F)C(=O)O (stereo unspecified),-15%&0%
Cc1cc(NC2CCCCC2)n2c(n1)nc1ccccc12,-12%
Cc1ccc(S(=O)(=O)N2CCNC(=O)C2)c(C)c1,-6%
CC(Nc1ccnc2cc(Cl)ccc12)c1ccc(S(N)(=O)=O)cc1 (stereo unspecified),-4%
N#Cc1c(N)n(CCCN2CCOCC2)c2nc3ccccc3nc12,17%
COc1ccc(CNC(=O)COc2cc(O)c3c(c2)OC(C)(C)CC3=O)c(OC)c1,-6%
CSCCC(NC(=O)c1ccc(C(C)(C)C)cc1)C(=O)OCC(=O)N1CCCC1=O (stereo unspecified),2%
O=[N+]([O-])c1cccc(/C=C/C=N/Nc2nc(N3CCCCC3)nc(N3CCCCC3)n2)c1,-17%
Cc1ccc2nc3c(cc(C(=O)NCC4CCCO4)c(=N)n3C(C)C)c(=O)n2c1 (stereo unspecified),-19%
Cc1cc(NC(=O)c2cccc(S(=O)(=O)Nc3cccc(C(=O)O)c3)c2)no1,-15%
O=CN1CCN(c2c([N+](=O)[O-])c(=O)oc3ccccc23)CC1,11%
Cc1ccc(C)c(N2CCN(C(=O)c3ccc4nc(-c5ccco5)c(-c5ccco5)nc4c3)CC2)c1,-19%
COc1cc2oc(=O)c(Br)c(C)c2c(OC)c1OC,13%
COc1ccc(OC)c(CNc2ccc3c(c2)nc(C)n3C)c1,-11%
CCOc1ccc(NS(=O)(=O)c2ccc(C(=O)N3CCC3)cc2)cc1,8%
Cc1ccc(-c2nn3c(-c4ccc(C)cc4)nnc3c3ccccc23)cc1,-2%
CN1C(=O)C(CC(=O)Nc2ccc(F)cc2)N(CCCc2ccccc2)C1=S (stereo unspecified),4%
O=C(NC1CCCCC1)NC1(C(=O)NCCCN2CCOCC2)CCCCC1,4%
COc1nc(OC)nc(N2CCCCCC2)n1,11%
CCc1ccc(S(=O)(=O)c2cn(C)c3cc(N4CCN(CC)CC4)c(F)cc3c2=O)cc1,-2%
CN(CC(=O)Nc1ccccc1C(F)(F)F)C(=O)CSc1nnc(-c2ccncc2)n1C,-20%
CC(C)C(NS(=O)(=O)c1cccs1)C(=O)NCc1ccccc1Cl (stereo unspecified),14%
CC(=O)c1cccc(S(=O)(=O)N2CCN(CCOc3ccccc3)CC2)c1,-15%
COc1ccc(C(=O)N[C@H](C(=O)NCc2ccco2)C(C)C)cc1,-22%
Oc1ccc(C2Nc3cccc4cccc(c34)N2)cc1,-12%
# (cont.)
SMILES,VDR inhibitor
CCn1c(Cc2ccccc2)nnc1SCC(=O)Nc1nnc(-c2ccccc2)s1,1%
COc1ccc(-c2[nH]nc3c2C(c2ccc(OC(=O)N4CCOCC4)cc2)C(C#N)=C(N)O3)cc1 (stereo unspecified),-16%
COc1ccc(-n2cc(-c3ccccc3)c3c(NC4CCCC4)ncnc32)cc1,11%
O=C1CSC2(C(=O)N(Cc3ccccc3F)c3ccccc32)N1c1cccc(C(F)(F)F)c1 (stereo unspecified),-9%
CCC(C)NC(=O)CSC1=Nc2ccccc2C2=NC(CC(=O)NCc3ccccc3)C(=O)N12 (stereo unspecified),5%
COc1ccccc1-c1cc2nc(C)c(CCC(=O)NCc3ccc(F)cc3)c(C)n2n1,6%
COc1ccc(/C=C2\SC(=O)N(CC(=O)NCCCn3ccnc3)C2=O)cc1,5%
CCC(=O)N1CCc2cc(S(=O)(=O)NC(CC(C)C)C(=O)Nc3cccc(C)c3C)ccc21 (stereo unspecified),-18%
O=C(O)CSc1nnc(-c2ccncc2)n1Cc1ccccc1,0%
CC1(C)CC(=O)C(=CN2CCOCC2)C(=O)C1,0%
O=c1cc(-c2ccccc2F)[nH]c2cc3c(cc12)OCO3,4%
Cc1ccc(C)c(OCCC(=O)OCC(=O)N2CCN(c3ccccc3)CC2)c1,7%
Cc1[nH]n2c(=O)c3c(nc2c1-c1ccc(F)cc1)CCCC3,-11%
O=C(COc1ccccc1)NCC(c1ccc(Cl)cc1)N1CCCCC1 (stereo unspecified),2%
CC(=O)c1cccc(NC(=O)NC2CCCCCCC2)c1,1%
C/C(=N\NC(=O)c1ccccc1O)c1ccc(Br)s1,-11%
CCc1cccc(CC)c1NC(=O)COC(=O)c1ccc(F)c(S(=O)(=O)N(CC)CC)c1,-23%
Cc1cc(C)c2c(N)c(C(=O)Nc3ccc(C)c(C)c3)sc2n1,5%
Cc1ccc(NC(=O)C(NC2CCCc3ccccc32)c2ccccc2)c([N+](=O)[O-])c1 (stereo unspecified),-24%
Cc1cccc(N(CC(=O)NC2CCCCC2)C(=O)Cn2nnc(-c3ccc(C)o3)n2)c1,-4%
O=C(NNC(=S)Nc1ccccc1Cl)c1ccccc1Cl,-12%
COC(=O)c1ccc(CSc2ccc3nnc(-c4ccc(F)cc4)n3n2)o1,-10%
COc1ccc(C(=O)NC(=S)NCCO)cc1Br,7%
C=CCOC(=O)CCC(=O)Nc1cc(OC)nc(OC)n1,10%
CCCC(=O)C1=C(O)C(C(=O)OC)C(C)(C)CC1=N (stereo unspecified),9%
Cc1cc(N/C=C\c2nnnn2-c2ccccc2)no1,-1%
O=c1[nH]c2cc3c(cc2cc1CN(Cc1nnnn1CC1CCCO1)C1CCCC1)OCO3 (stereo unspecified),-11%
CN(C(=O)CCNC(=O)Cn1cnc2ccccc2c1=O)c1ccccc1F,13%&-11%
O=C(CNC(=O)C(c1ccccc1)c1ccccc1)N/N=C/c1ccc(O)cc1O,0%
O=S(=O)(c1ccc2nc(-c3ccco3)c(-c3ccco3)nc2c1)N1CCOCC1,-23%

# As entered above.
# For VDR inhibitor, Cc1cc(NC2CCCCC2)n2c(n1)nc1ccccc12 reads -12%
# For VDR inhibitor, Cc1[nH]n2c(=O)c3c(nc2c1-c1ccc(F)cc1)CCCC3 reads -11%

# The list goes on:
SMILES,VDR inhibitor
Cc1cc(NC(=O)CSc2nc(-c3ccc(Cl)cc3)cs2)no1,-2%
O=[N+]([O-])c1cccc(NC(=S)N2CCOCC2)c1,-29%
O=C(Nc1ccccc1N1CCOCC1)c1ccco1,-6%
O=C(c1ccco1)N1CCN(C(=O)C2c3ccccc3Oc3ccccc32)CC1,-6%
CCCCCCn1c(SCC(=O)OC)nc2c1c(=O)[nH]c(=O)n2C,22µM*
COCCCNC(=S)N(CCCO)Cc1cc2cc3c(cc2[nH]c1=O)OCCO3,2%
O=C(CN1CCN(c2ccc(F)cc2)CC1)Nc1cc(C(F)(F)F)ccc1Cl,9%
CCn1cc(C(=O)OCC(=O)NCc2ccc3c(c2)OCO3)c(=O)c2ccc(C)nc21,-5%
O=C(O)C1C2C=CC(C3CC23)C1C(=O)N1CCc2ccccc21 (stereo unspecified),-7%
CC(=O)Nc1nc(-c2ccccc2)cc(-c2ccco2)c1C#N,-3%
COc1cc(-c2nc3ccc4ccccc4c3c3c2CCC3)ccc1O,?
CC1=CC(C)=Nc2ccccc2N1,-3%
CC(C)(C)n1nc2c(c1NC(=O)c1cc3ccccc3o1)CSC2,6%
CCc1cc2c(-c3ccccc3)cc(=O)oc2c2c1OCN(Cc1ccc(F)cc1)C2,0%
COc1ccc(-c2nc(CN3CCCCC3CCc3ccccn3)c(C)o2)cc1 (stereo unspecified),-4%
Cn1cnc([N+](=O)[O-])c1SCC(=O)NN,2%
CCOc1ccc(-n2c(=S)sc3c(=O)[nH]c(SCC(=O)C(C)(C)C)nc32)cc1,-4%
COc1ccccc1NC(=O)C1CCN(C(=O)c2ccc(C(C)(C)C)cc2)CC1,22%
COc1ccc(CN2CCCC(CO)(Cc3ccc(F)cc3)C2)cc1C (stereo unspecified),-8%
O=c1nc(-c2ccccc2)n(-c2ccc(Cl)cc2)[nH]1,?
O=C(c1ccc(F)cc1F)N1CCN(c2ncccn2)CC1,6%
OCCSc1nc2ccccc2n1CCOc1ccccc1,-7%
COc1cc(C2NC(=O)NC(c3ccccc3)=C2C(C)=O)ccc1OCC(=O)O (stereo unspecified),-11%
COc1ccc(C2/C(=C(/O)c3ccc(F)cc3)C(=O)C(=O)N2CCCN(C)C)cc1 (stereo unspecified),12%
Cn1c(SCC(=O)NCc2cccs2)nnc1-c1ccco1,-2%
O=C(Nc1nc(-c2ccccc2)cs1)C1CCCO1 (stereo unspecified),12%
Cc1ccc(Cl)cc1NC(=O)NC1COc2ccccc2C1 (stereo unspecified),11%
Cc1cc(Nc2ccc3c(c2)OCCO3)n2ncnc2n1,-12%
COC(=O)[C@H](Cc1ccccc1)NC(=O)NCc1ccccc1,-8%
CCCN(Cc1ccccc1)C(=S)Nc1ccc(F)cc1,0%
COc1ccc(Cl)cc1NC(=O)c1c(NCc2cccs2)sc2c1CCCC2,4%
CCOc1ccccc1NC(=O)Nc1cc(C(=O)O)ccc1C,-10%
O=C(NCc1nnc(SCc2ccc(C(F)(F)F)cc2)n1-c1ccccc1)C12CC3CC(CC(C3)C1)C2,0%
CCN1CCN(c2ncc3c(n2)CCN(Cc2cc(Br)cs2)C3)CC1,-4%
O=C(NCc1ccccc1)C1CCN(S(=O)(=O)c2ccc3[nH]c(=O)ccc3c2)CC1,-9%
CC1(c2nnc(-c3cccc(Cl)c3)o2)CC(c2ccc(C#N)cc2)=NO1 (stereo unspecified),0%
CC(=O)Nc1ccc(S(=O)(=O)NCC(=O)NNC(=O)COc2c(C)cccc2C)cc1,8%
Cc1sc2nc(Cc3ccccc3)[nH]c(=O)c2c1-c1ccccc1,3%
O=C(NCCc1ccccc1)c1cc(S(=O)(=O)N2CCCC2)ccc1F,1%
Cc1ccc(NC2=C/C(=N\S(=O)(=O)c3cccs3)c3ccccc3C2=O)c(C)c1,-14%
CC1CC(=O)C2=C(C1)Nc1ccccc1N(C(=O)COc1ccccc1)C2c1ccco1 (stereo unspecified),13%
COc1ccc(C(=O)SC2=NCCS2)cc1OC,-7%
CCN(C(=O)Cn1ncc2c(=O)oc3ccccc3c21)c1ccccc1F,-19%

# In the list so far, these have an aryl thioether with sulfur outside any ring.
SMILES,VDR inhibitor
CCOc1ccc(CCNC(=O)c2[nH]c3cc(OC)ccc3c2Sc2ccccc2)cc1OCC,-2%
CCCCNC(=O)c1cccnc1SCC(=O)Nc1ccccc1OC,-4%
CCn1c(CNC(=O)c2ccco2)nnc1SCC(=O)c1ccc(OC)cc1,5%
CN(CC(=O)Nc1ccccc1C(F)(F)F)C(=O)CSc1nnc(-c2ccncc2)n1C,-20%
CCn1c(Cc2ccccc2)nnc1SCC(=O)Nc1nnc(-c2ccccc2)s1,1%
O=C(O)CSc1nnc(-c2ccncc2)n1Cc1ccccc1,0%
COC(=O)c1ccc(CSc2ccc3nnc(-c4ccc(F)cc4)n3n2)o1,-10%
Cc1cc(NC(=O)CSc2nc(-c3ccc(Cl)cc3)cs2)no1,-2%
CCCCCCn1c(SCC(=O)OC)nc2c1c(=O)[nH]c(=O)n2C,22µM*
Cn1cnc([N+](=O)[O-])c1SCC(=O)NN,2%
CCOc1ccc(-n2c(=S)sc3c(=O)[nH]c(SCC(=O)C(C)(C)C)nc32)cc1,-4%
OCCSc1nc2ccccc2n1CCOc1ccccc1,-7%
Cn1c(SCC(=O)NCc2cccs2)nnc1-c1ccco1,-2%
O=C(NCc1nnc(SCc2ccc(C(F)(F)F)cc2)n1-c1ccccc1)C12CC3CC(CC(C3)C1)C2,0%

# Not all compounds are listed; rates above refer to the full screens.
